# Screening data (PubChem BioAssay)
# Cruzain inh Det – qHTS Assay for Promiscuous and Specific Inhibitors of Cruzain (with detergent) | Cruzipain (Trypanosoma cruzi), P25779 | purified cruzain, Z-FR-AMC fluorescence, 0.01% Triton | Potency, µM, inactives show max response, negative = inhibition, actives largely listed as inhibitors | 0.43% of 200,000 active;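 note: plate controls were neutral wells for no effect and buffer without enzyme for full effect; nearly all actives have a fitted effect of over 40% in size; top concentration of the series not given in the record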
# Target sequence (P25779 123-467 limits assumed): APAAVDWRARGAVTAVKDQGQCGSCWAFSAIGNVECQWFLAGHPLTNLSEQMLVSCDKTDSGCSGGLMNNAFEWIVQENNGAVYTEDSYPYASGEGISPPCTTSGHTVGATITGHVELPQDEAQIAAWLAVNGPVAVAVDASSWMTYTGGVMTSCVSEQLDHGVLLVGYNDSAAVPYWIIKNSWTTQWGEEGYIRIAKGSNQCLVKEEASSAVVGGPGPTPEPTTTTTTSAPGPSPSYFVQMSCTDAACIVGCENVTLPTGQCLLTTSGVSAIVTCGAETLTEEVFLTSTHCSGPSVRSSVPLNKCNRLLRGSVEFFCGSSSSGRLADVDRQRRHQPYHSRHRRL
#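 Sodium acetate buffer (100 mM, pH 5.5) containing 5 mM DTT and 0.01% Triton X-100 hosted 1.5 nM cruzain and test compound for 15 min at room temperature. Cleavage of 2 uM Z-FR-AMC was then tracked by fluorescence.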
# MARV entry inh – qHTS for inhibitors of binding or entry into cells for Marburg Virus. Potency, µM (top dose mostly 37.8 µM), for the others: at the top dose activity change, negative = inhibition, most hits filed as inhibitors. 1.8% of 300,000 active. AID 540276, 2011. Marburg virus pseudotyped entry inhibition, cell reporter; control for the full effect not named in the record; about a third of the inactives were read at about 46 µM; active = well fitted inhibition curve with a large enough effect; inconclusive = small, poorly fitted or top-dose-only effect, or effect the other way; inactive = flat fitted curve, though single readings scatter; tested in HEK293 cells; about a fifth of its hits are not listed in these tables; note: % is set by controls: 0 for no effect and ±100 for the full control effect; luciferase read-out
# SARS PLpro yeast – qHTS of Yeast-based Assay for SARS-CoV PLP | S. cerevisiae expressing SARS-CoV PLpro, growth rescue; control for the full effect not named in the record | Potency, µM (doses to about 32.9 µM), without a hit: top-dose activity, positive = growth rescue | 0.19% of 330,000 active; active means well fitted rising curve with a large enough effect; inconclusive means small, poorly fitted or top-dose-only effect; inactive means no such curve, though single readings can be large or run the other way; note: 0% is about no effect; nearly all actives have a fitted effect of over 55% in size; growth read by luminescence after 48 h
# RE007 growth inh – qHTS Assay for Inhibitors of the HIV-1 protein Vpr; S. pombe RE007 Vpr strain, BacTiter-Glo ATP luminescence, 24 h; control for the full effect not named in the record; Potency, µM (top dose mostly 92.2 µM), for the others: at the highest dose activity change, negative = less growth; 0.21% of 360,000 active; AID 651644, 2012; active = well fitted falling curve with a large enough effect; inconclusive = small, poorly fitted or top-dose-only effect; inactive = no such curve, though single readings can be large or run the other way;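 note: % is set by controls: 0 for no effect and ±100 for the full control effect; nearly all actives have a fitted effect of over 50% in size; the assay follows cell death caused by Vpr and the record does not say whether a fall means rescue or toxicity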
#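 Fission yeast RE007 carrying one integrated HIV-1 vpr copy, seeded at OD 0.01 in PMG+AL medium with 23 nL pinned compound. Grown 24 h at 30 degrees; viability read by BacTiter-Glo luminescence after 5 min.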
# NS1 inh – qHTS Assay for Inhibitors of Influenza NS1 Protein Function; Potency, µM (doses to about 46.1 µM), for the others: at the top dose activity, positive = more growth; 0.4% of 270,000 active; AID 2326, 2010; S. cerevisiae slowed by influenza A NS1, growth recovery by OD600; active means well fitted rising curve with a large enough effect; inconclusive means small, poorly fitted or top-dose-only effect; inactive means no such curve, though single readings can be large or run the other way; note: nearly all actives have a fitted effect of over 50% in size
#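 OD600 was taken as the measure of yeast growth restored by compound in an NS1-expressing S. cerevisiae strain. Cells had been washed out of glucose medium and diluted 1:100 into galactose -URA medium, pH 6.0.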
# 2A StopGo – High Throughput Screening for Foot and Mouth Disease Virus Antivirals; Potency, µM (titrated, usually from 57.9 µM), inactives show at the top dose signal change, negative = less light; human cells with a luciferase reporter of 2A StopGo recoding; control for the full effect not named in the record; 1.2% of 410,000 active; active = well fitted falling curve with a large enough effect; inconclusive = small, poorly fitted or top-dose-only effect; inactive = no such curve, though single readings can be large or run the other way; tested in HEK293T cells; note: % is set by controls: 0 for no effect and ±100 for the full control effect; nearly all actives have a fitted effect of over 45% in size; luciferase light after 4 h
# LASV entry inh – qHTS for Inhibitors of binding or entry into cells for Lassa Virus. Lassa virus pseudotype entry inhibition, cell reporter; control for the full effect not named in the record. 1.2% of 300,000 active. Potency, µM (doses to about 37.9 µM), for inactives: at the highest dose activity change, negative = inhibition, most hits filed as inhibitors; active means well fitted inhibition curve with a large enough effect; inconclusive means small, poorly fitted or top-dose-only effect, or effect the other way; inactive means flat fitted curve, though single readings scatter; tested in HEK293 cells; note: % is set by controls: 0 for no effect and ±100 for the full control effect; nearly all actives have a fitted effect of over 50% in size; luciferase read-out
# Cruzain inh noDet – qHTS Assay for Promiscuous and Specific Inhibitors of Cruzain (without detergent); Cruzipain (Trypanosoma cruzi), P25779; purified cruzain, Z-FR-AMC fluorescence, no detergent; Potency, µM, for the others: max response, negative = inhibition, hits mostly inhibitors; 2.3% of 200,000 active; AID 1476, 2009;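 note: plate controls were enzyme without inhibitor for no effect and buffer without enzyme for full effect; nearly all actives have a fitted effect of over 40% in size; top concentration of the series not given in the record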
#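 Purified cruzain at 1.5 nM, pre-incubated 15 min with compound at room temperature in 100 mM sodium acetate pH 5.5, 5 mM DTT, 0.00005% Triton X-100. Reaction started with 2 uM Z-FR-AMC; AMC fluorescence increase over 60 s gives rate.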
# An asterisk follows results filed as active; ? = inconclusive; nt = not tested or not shown; & = joins results of further samples; [ ] = dose if it differs, or a comment. Unless noted, calls come from the whole dose curve; as a rule, active = well fitted curve in the direction sought with a large enough effect; inconclusive = small, poorly fitted or top-dose-only effect, or another doubt; inactive = no such curve, though single readings can be large; an effect the other way counts as inactive or inconclusive. Potency is the fitted concentration of half-maximal effect.
SMILES,Cruzain inh Det,MARV entry inh,SARS PLpro yeast,RE007 growth inh,NS1 inh,2A StopGo,LASV entry inh,Cruzain inh noDet
Cc1cc(NC(=O)c2ccco2)ccc1NC(=O)Cc1cccs1,-1.9%,24%,6%,11%,2%,60%[activator],13%,-1%
CCOc1ccccc1NC(=O)Nc1ccc(Br)cn1,nt,nt,0%,-4%,0%,-19%,nt,nt
CN1C(=O)N(C)C2C1NC(=O)N2C (stereo not given),1.2%,0%,-3%,-5%,-5%,2%,12%,2%
COc1ccccc1N(CC(=O)N1CCN(c2ccc(F)cc2)CC1)S(=O)(=O)c1ccc(C)cc1,nt,-14%,7%,2%,24%,10%,?,nt
C/C(=N\NC(=O)Cc1ccc([N+](=O)[O-])cc1)c1cccnc1,nt,12%,10%,6%,1%,-22%,12%,nt
CC(C)N1CCN(Cc2ccccc2C(F)(F)F)CC1CCO (stereo not given),nt,?,0%,8%,1%,-10%,10%,nt
Cc1ccc(Cn2nnc3c(=O)[nH]c(C4CCCN(S(=O)(=O)c5ccccc5)C4)nc32)cc1 (stereo not given),-4.1%,-14%,-6%,-9%,8%,nt,?,22%
CCOc1ccc(Sc2cc(C(=O)NC(C)CC)c3ccccc3n2)cc1 (stereo not given),-0.1%,nt,nt,nt,nt,-28%,24%[46.1 µM],8%
CC(=O)N1C(=S)NC(=O)/C1=C1/C(=O)N(CC(=O)Nc2cccc(C)c2)c2ccccc21,2.0%,?,-8%,4%,8%,-9%,0%,-17%
COC(=O)c1nc(N)sc1-c1ccc(Cl)c(Cl)c1,nt,nt,-1%,4%,1%,-10%,nt,nt
CC(=O)Oc1ccc(C(=O)Nc2ccccc2C(=O)Nc2ccc(C(=O)O)cc2)cc1,nt,nt,1%,7%,21%,-7%,nt,nt
Cc1cccn2c(=O)c(C(=O)NCc3ccc(F)cc3)c(O)nc12,-1.6%,-15%[46.1 µM],nt,nt,nt,-20%,nt,?
CCN(CCCNC(=O)CSc1cc(=O)n(C)c2ccccc12)c1ccccc1,-7.6%,8%[46.1 µM],nt,nt,nt,-21%,6%[46.1 µM],0%
Cc1ccc(CN2CCN(/N=C/c3cc([N+](=O)[O-])ccc3Cl)CC2)cc1,2.1%,-7%,10%,-19%,3%,-3%,-2%,-7%
CC(NC(=O)CN(C)CC(=O)Nc1cccc(F)c1)c1ccccc1 (stereo not given),nt,26%,12%,2%,nt,-10%,1%,nt
O=C1CN(C(=O)/C=C/c2ccco2)c2ccccc2N1,nt,-2%[14.2 µM],2%,2%,9%,18%,16%,nt
CCc1nnc(NC(=O)CSc2nc(C)nc3c2c(=O)n(C)c(=O)n3C)s1,nt,nt,-3%,-10%,9%,?,nt,nt
COc1ccc(/C=C(\NC(=O)c2ccc(C)cc2)C(=O)NCCN2CCOCC2)cc1,nt,3%[46.1 µM],2%,3%,-1%,-8%,-2%,nt
COC(=O)c1[nH]c2c(c1C)C(=O)CC(c1ccc(OC)cc1)C2 (stereo not given),nt,-4%[46.1 µM],0%,3%,-5%,-6%,-18%[46.1 µM],nt
COc1cc(NC(=S)NC(=O)c2cc(C)cc(C)c2)ccc1NC(=O)c1cccs1,-4.0%,?,-10%,12%,26%,-8%,-16%,16µM*
CC1=C([N+](=O)[O-])C(c2ccc(Cl)cc2)NC(=O)N1 (stereo not given),nt,8%,7%,-12%,-3%,-8%,0%,nt
CC(CN1CCCCC1)OC(=O)Cc1ccc(Cl)cc1 (stereo not given),0.6%,-1%,-4%,-2%,-3%,18%,6%,0%
Cc1csc(=NC(=O)c2ccccc2)n1CCO,-0.7%,13%,-2%,0%,-9%,15%,3%,-2%
COc1ccc(NS(=O)(=O)c2ccc3c(c2)N(C(C)=O)CCO3)c(OC)c1,nt,nt,9%,-6%,-10%,12%,nt,nt
CCN(CC)S(=O)(=O)c1ccc2c(c1)c(=O)c(C(=O)N1CCN(c3cc(C)ccc3C)CC1)cn2C,-3.5%,20%[46.1 µM],nt,nt,nt,-24%,-4%[46.1 µM],11%

# The results go on.
SMILES,Cruzain inh Det,MARV entry inh,SARS PLpro yeast,RE007 growth inh,NS1 inh,2A StopGo,LASV entry inh,Cruzain inh noDet
CCc1nnc(NC(=O)c2cc(S(=O)(=O)N(C)c3ccc(OC)cc3)ccc2Cl)s1,nt,-26%,-6%,-20%,-2%,-16%,1%,nt
CC1CCCC(NC(=O)COC(=O)CCSc2ccccc2)C1C (stereo not given),nt,?,-5%,0%,nt,1%,-1%,nt
Cc1nn(C)c(Oc2ccc(Cl)cc2)c1C(=O)Nc1ccc(F)cc1F,-6.4%,-20%,-2%,-11%,10%,0%,1%,15%
CCOc1c2ccc(C(=O)N[C@H](C)C3CCCCC3)cc2nn1CCOC,-9.3%,nt,2%,-8%,-6%,13%,nt,4%
Cc1noc(C)c1C(=O)Nc1ccc(F)c(F)c1,1.5%,14%,1%,0%,-6%,-14%,-5%,-24%
CCCCN(CCCNC(=O)C1CCN(S(=O)(=O)N2CCOCC2)CC1)Cc1ccccc1,1.8%,-4%&-4%,4%,-1%,-2%,-13%,-2%,17%
Cc1ccc(-c2ccc(/C=C3\C(=O)ON=C3c3ccccc3)o2)c([N+](=O)[O-])c1,-22%,?,-17%,-11%,2%,-9%,2%,?
CCOc1ccc(N(CC(=O)O)S(=O)(=O)c2ccc(F)cc2)cc1,3.3%,?,5%,1%,-21%,-14%,-1%,-14%
CC(C)CCNC(=O)c1ccc(Cn2c(SCC(N)=O)nc3ccccc3c2=O)cc1,-1.0%,nt,nt,nt,nt,1%,-20%[46.1 µM],-7%
O=C(CCc1nnc(CCCCc2ccccc2)o1)NCCC1CCCCO1 (stereo not given),nt,-15%[46.1 µM],0%,-3%,-1%,4%,0%,nt
CCOc1cc2c(cc1OCC)-n1cccc1C(c1ccc(OC(F)F)cc1)NC2 (stereo not given),nt,nt,1%,-10%,3%,?,nt,nt
COCCCNS(=O)(=O)c1ccc(Oc2ncc(C(F)(F)F)cc2Cl)cc1,-15%,?,-8%,-4%,1%,-10%,0%,?
COc1ccc(CSc2nnnn2C)cc1F,2.3%,?,10%,5%,-8%,11%,17%,-10%
FC(F)C(F)(F)Oc1cccc(-c2n[nH]c(=S)n2Cc2ccccc2)c1,nt,-16%[46.1 µM],-6%,-12%,nt,-29%,-4%,nt
CCOCC(=O)Nc1ccc(F)c(F)c1,3.2%,13%,nt,6%,-8%,-4%,9%,-6%
O=C(c1cccc(-c2ccccc2F)c1)N1CC[C@@H](N2CCC(O)CC2)[C@H](O)C1,nt,nt,-2%,16%,?,12%,nt,nt
CCCCN1CCC(COC(=O)c2cc(Cl)c(N)c3c2OCCO3)CC1,1.3%,11µM*,nt,4%,3%,0%,nt,-16%
Cc1nc2ccc(S(=O)(=O)Nc3cccc(-c4nc5cccnc5s4)c3)cc2s1,-3.9%,-4%,-28%,-5%,11µM*,60%[activator],8%,?
COc1ccc(/C=N\NS(=O)(=O)c2ccc(C)cc2)cc1COc1ccccc1[N+](=O)[O-],-0.6%,-27%[46.1 µM],1%,-1%,?,9%,-21%,?
COc1cc(C(=O)Nc2ccc(C)cc2C(NCC(=O)NN)c2ccccc2)cc(OC)c1OC (stereo not given),nt,nt,-2%,-2%,?,4%,nt,nt
Cc1ccc(C)c(N2C(=O)CN=C2Nc2ccccc2Cl)c1,4.4%,11%,-1%,5%,-5%,28%,?,-2%
CC(=O)c1ccc(NC(=O)/C(C#N)=C/c2ccncc2)cc1,nt,nt,?,-5%,3%,-12%,nt,nt
COc1ccc(S(=O)(=O)Nc2ccccc2C(=O)N2CCOCC2)cc1OC,nt,8%,1%,-5%,11%,14%,10%,nt
O=C(Cn1cncn1)N/N=C/c1ccccc1O,nt,0%[46.1 µM],11%,2%,1%,31%[activator],3%,nt
Clc1ccccc1OCc1nn[nH]n1,nt,nt,2%,6%,4%,5%,nt,nt

# In a second layout: two of the compounds above.
# Values in the order: Cruzain inh Det | MARV entry inh | SARS PLpro yeast | RE007 growth inh | NS1 inh | 2A StopGo | LASV entry inh | Cruzain inh noDet
- COCCCNS(=O)(=O)c1ccc(Oc2ncc(C(F)(F)F)cc2Cl)cc1
    -15% | ? | -8% | -4% | 1% | -10% | 0% | ?
- COc1ccc(/C=N\NS(=O)(=O)c2ccc(C)cc2)cc1COc1ccccc1[N+](=O)[O-]
    -0.6% | -27%[46.1 µM] | 1% | -1% | ? | 9% | -21% | ?

# Gathered by group: the compounds so far with a thiophene ring, fused or not
SMILES,Cruzain inh Det,MARV entry inh,SARS PLpro yeast,RE007 growth inh,NS1 inh,2A StopGo,LASV entry inh,Cruzain inh noDet
Cc1cc(NC(=O)c2ccco2)ccc1NC(=O)Cc1cccs1,-1.9%,24%,6%,11%,2%,60%[activator],13%,-1%
COc1cc(NC(=S)NC(=O)c2cc(C)cc(C)c2)ccc1NC(=O)c1cccs1,-4.0%,?,-10%,12%,26%,-8%,-16%,16µM*

# Profiles, quoted from the list.
# Shown for `Cc1nc2ccc(S(=O)(=O)Nc3cccc(-c4nc5cccnc5s4)c3)cc2s1` = Cruzain inh Det: -3.9%; MARV entry inh: -4%; SARS PLpro yeast: -28%; RE007 growth inh: -5%; NS1 inh: 11µM*; 2A StopGo: 60%[activator]; LASV entry inh: 8%; Cruzain inh noDet: ?
# Shown for `Cc1noc(C)c1C(=O)Nc1ccc(F)c(F)c1` = Cruzain inh Det: 1.5%; MARV entry inh: 14%; SARS PLpro yeast: 1%; RE007 growth inh: 0%; NS1 inh: -6%; 2A StopGo: -14%; LASV entry inh: -5%; Cruzain inh noDet: -24%
